# gsp agonist: agonists of gsp mutant (McCune-Albright syndrome). gsp mutant cells, cAMP HTRF, 30 min; control for the full effect not named in the record. Potency, µM (doses to about 76.9 µM), inactives show top-dose activation (cAMP increase), usual class: activators. 340,000 tested, 0.13% active. AID 624287; active = well fitted activation curve with a large enough effect; inconclusive = small, poorly fitted or top-dose-only effect, or another doubt; inactive = no such curve, though single readings can be large or run the other way; cell line not stated here;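 also: phosphodiesterase inhibitor Ro 20-1724 added with compounds to block cAMP breakdown; potency is read from the fitted curve at half-maximal effect; nearly all actives have a fitted effect of over 60% in size; about a fifth of the inactives were tested at one dose only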
#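 Cells in DMEM/10% FBS with G418 were pretreated with compounds in DMSO plus […] (300 uM stock) for 30 min at 37C. cAMP was measured by HTRF (cAMP-d2 plus anti-cAMP antibody-K) after 30 min at room temperature.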
# TRPV1 PAM: enhances activation of the human vanilloid receptor TRPV1. Q8NER1. TRPV1-expressing cells, Fluo-8 calcium influx, capsaicin EC20 potentiation; host cell line not named in the record; control for the full effect not named in the record. potentiation, % at 8.33 µM. 320,000 tested, 0.02% active. AID 540277; active means potentiation above 80%; inconclusive means 30% to 80%; inactive means below 30%; also: 0% is about no effect
# Target sequence (Q8NER1 whole entry, looked up): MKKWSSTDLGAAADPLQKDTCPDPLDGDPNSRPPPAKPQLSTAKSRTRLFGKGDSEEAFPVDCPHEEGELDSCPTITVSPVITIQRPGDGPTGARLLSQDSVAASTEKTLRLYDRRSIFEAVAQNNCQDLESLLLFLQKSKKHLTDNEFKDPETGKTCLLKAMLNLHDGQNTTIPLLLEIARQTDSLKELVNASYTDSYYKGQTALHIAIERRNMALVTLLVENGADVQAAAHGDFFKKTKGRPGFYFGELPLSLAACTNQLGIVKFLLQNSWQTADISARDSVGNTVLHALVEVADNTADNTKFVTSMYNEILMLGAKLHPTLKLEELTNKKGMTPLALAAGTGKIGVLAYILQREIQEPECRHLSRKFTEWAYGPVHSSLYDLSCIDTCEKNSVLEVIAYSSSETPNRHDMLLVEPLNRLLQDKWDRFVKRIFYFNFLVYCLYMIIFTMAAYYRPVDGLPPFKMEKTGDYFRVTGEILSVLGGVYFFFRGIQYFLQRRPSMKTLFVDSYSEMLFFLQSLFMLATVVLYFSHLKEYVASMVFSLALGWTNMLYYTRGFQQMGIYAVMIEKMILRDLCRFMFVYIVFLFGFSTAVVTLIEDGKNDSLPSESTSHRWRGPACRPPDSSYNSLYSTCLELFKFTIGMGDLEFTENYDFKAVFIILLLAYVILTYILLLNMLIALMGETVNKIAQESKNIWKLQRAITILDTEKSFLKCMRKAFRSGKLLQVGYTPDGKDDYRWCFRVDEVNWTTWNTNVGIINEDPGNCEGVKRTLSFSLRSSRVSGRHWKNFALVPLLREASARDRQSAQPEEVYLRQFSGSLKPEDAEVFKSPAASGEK
#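 Cells expressing TRPV1 were dye-loaded with Fluo-8 and read kinetically: 10 s baseline, 3 min after compound (agonist portion), then 2 min after EC20 capsaicin (allosteric enhancer portion). Calcium-bound dye fluorescence at 480/520 nm.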
# gsp antagonist: antagonists of gsp mutant (McCune-Albright syndrome); gsp-mutant cells, cAMP HTRF, 30 min; control for the full effect not named in the record; Potency, µM (doses to about 76.9 µM), for inactives: top-dose activity change, negative = inhibition, usual class: inhibitors; 340,000 tested, 0.4% active; AID 624288; active = falling curve of any shape with a large fitted effect; inconclusive = falling curve, mostly with a smaller effect; inactive = flat or rising curve; cell line not stated here;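 also: intracellular cAMP measured with PDE inhibitor Ro 20-1724 present during compound exposure; potency is read from the fitted curve at half-maximal effect; % is scaled to controls: 0 for no effect and ±100 for the full control effect; nearly all actives have a fitted effect of over 65% in size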
#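 Measurement of cellular cAMP by homogeneous time-resolved fluorescence following a 30 min compound exposure at 37C. The PDE inhibitor […] was present throughout; the assay buffer was DPBS with 0.05% BSA and 0.005% Tween 20.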
# Menin-MLL FL inh: menin-MLL binding inhibition, fluorescein peptide; Fluorescence polarization, fluorescein-MLL peptide displacement from menin; FP activity change, % at 61.4 µM; 290,000 tested, under 10 active; inconclusive = falling polarisation curve, or a change in total fluorescence; inactive = total fluorescence flat and polarisation flat or rising; no compound was filed as active; the % refers to the polarisation; negative = inhibition;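 also: % of control where 0% means no effect; inhibitors lower the polarisation; unlabelled MLL peptide was the positive control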
# Sfp PPTase inh: blocks B. subtilis Sfp PPTase activity; Q9F4F7; Biochemical Sfp PPTase activity, qHTS; Potency, µM, inactives show max response, negative = inhibition, most hits filed as inhibitors; 310,000 tested, 3.5% active; AID 1490; active = well fitted inhibition curve with a large enough effect; inconclusive = small, poorly fitted or top-dose-only effect, or another doubt; inactive = no such curve, though single readings can be large or run the other way;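 also: the enzyme is Sfp with the accession as filed and its product quenches rhodamine fluorescence; potency is read from the fitted curve at half-maximal effect; 0% = enzyme reaction without inhibitor and -100% = no enzyme wells; top concentration of the series not given in the record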
#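 Reaction rates are the 30-min fluorescence difference (ex 525, em 598 nm) in wells containing 15 nM Sfp, 5 uM rhodamine-CoA and 12.5 uM BHQ-2-YbbR at pH 7.6 with 10 mM MgCl2.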
# ClpP mod: qHTS Assay for Activators of ClpP; AID 651965, 2013; Potency, µM (doses to about 57.5 µM), without a hit: at the highest dose activity change, negative = active; ATP-dependent Clp protease proteolytic subunit (Bacillus subtilis (strain 168)), P80244; purified B. subtilis ClpP, FRET peptide cleavage, 20 min; 340,000 tested, 1.9% active; active = well fitted falling curve with a large enough effect; inconclusive = small, poorly fitted or top-dose-only effect; inactive = no such curve, though single readings can be large or run the other way; also: potency is read from the fitted curve at half-maximal effect; the source files actives as falling curves though it sought activators and does not explain the sign; nearly all actives have a fitted effect of over 65% in size; many hits overshoot -100%
# Target sequence (P80244 whole entry, looked up): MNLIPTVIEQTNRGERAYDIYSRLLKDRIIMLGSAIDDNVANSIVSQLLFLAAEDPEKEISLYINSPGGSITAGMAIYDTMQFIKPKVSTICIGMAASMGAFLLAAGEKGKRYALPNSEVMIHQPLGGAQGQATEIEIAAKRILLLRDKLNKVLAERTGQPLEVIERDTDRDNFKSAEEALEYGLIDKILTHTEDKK
#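 Purified B. subtilis ClpP, 10 microg/mL final in Tris/HCl pH8 with KCl, BSA, glycerol and Tween-20, cleaved an Abz/nitrotyrosine-quenched decapeptide. Fluorescence (ex 320, em 430) was read at 0 and 20 min at room temperature. Delta was normalized to 5.8 microM ADEP and DMSO/no-enzyme controls.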
# CtBP-E1A inh: CtBP/E1A binding inhibition | AlphaScreen GST-E1A/His-CtBP binding, 1536-well; active compounds read low; control for the full effect not named in the record | activity change, % (test concentration not listed) | 340,000 tested, 0.49% active; in the data active means activity change below about -65%; inconclusive means about -30% to -65%; inactive means above about -30%; also: % is scaled to controls: 0 for no effect and ±100 for the full control effect
#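 Steps: dispense buffer (Tris pH 8.0, NaCl 300 mM, TCEP 1 mM, BSA, Tween 20); add 5X protein mix (GST-E1A, His-CtBP, 125 nM each); pin 23 nL compound; 2 h at 37 °C, dark; add 5X beads (50 ug/mL); 1 h; read.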
# Starred values were filed as active, the others as inactive; ? = inconclusive; . = no result given; [ ] = another dose, or the depositor's remark.
SMILES,gsp agonist,TRPV1 PAM,gsp antagonist,Menin-MLL FL inh,Sfp PPTase inh,ClpP mod,CtBP-E1A inh
Cc1ccc(Cn2c(=O)c3ccccc3n3c(CCC(=O)NCCN4CCOCC4)nnc23)cc1,15%,4,11%,2.1,5%,-16%,-16
Cc1ccc(OCCOCCN(C)C)c(Cl)c1,?,11,9%,-1.0,-9%,2.4%,4
O=C(N1CCCC1)C12CC3CC(CC(Cl)(C3)C1)C2,18%,3,6%,1.4,-1%,1.0%,.
CCOC(=O)CSc1nc2ccc(C)cc2[nH]1,-3%,3,-4%,-0.6,13%,-0.1%,4
O=C(Nc1cc(C(F)(F)F)ccc1N1CCOCC1)c1cnccn1,26%,2,0%,.,16%,-0.9%,4
O=C(Nc1ccc(Oc2ncnc3cc(Cl)ccc23)nc1)Nc1cccc(C(F)(F)F)c1,5%[15.4 µM],-17,8%,-5.8,6%,.,0
CC1CN(C(=O)c2cc(S(=O)(=O)N3CCCCC3)ccc2Cl)CC(C)O1 (centres undefined),-6%,-19,13%,.,.,0.8%,6
CC1=CC2=C(OC1N(C)C)c1cccc3cccc(c13)C2=O (centres undefined),4%,?,-8%,?,?,-0.8%,-9
Nc1[nH]c(=O)[nH]c(=O)c1N=Cc1ccccc1,20%,.,-6%,.,.,28µM*,-6
CCOC(=O)c1sc2nc(Cc3ccc(Cl)cc3)[nH]c(=S)c2c1C,?,8,3%,1.0,16%,-0.6%,9
Cc1cc(SCC(=O)c2cccs2)nc2ccccc12,1%,-15,-31%,3.2,-23%,0.2%,0
CCNC(=S)N1CCN(c2nc(-c3cccc(OC)c3)cs2)CC1,20%,0,32µM*,-0.7,2%,-4.9%,-6
Cc1c(NC(=O)C(C)OC(=O)c2cc(-c3cccc4ccccc34)nc3ccccc23)c(=O)n(-c2ccccc2)n1C (centres undefined),-8%,-4,-18%,4.4,0%,-20%,-13
CC(C)(C)c1ccc(OCc2nnc(SCC(N)=O)n2N)cc1,-8%[15.4 µM],-1,26%,0.6,3%,.,-8
Nc1nnc(SCC(=O)c2ccccc2)s1,6%,19,7%,-2.2,13%,-0.2%,-3

# Among those listed so far, two contain a CF3 group.
SMILES,gsp agonist,TRPV1 PAM,gsp antagonist,Menin-MLL FL inh,Sfp PPTase inh,ClpP mod,CtBP-E1A inh
O=C(Nc1cc(C(F)(F)F)ccc1N1CCOCC1)c1cnccn1,26%,2,0%,.,16%,-0.9%,4
O=C(Nc1ccc(Oc2ncnc3cc(Cl)ccc23)nc1)Nc1cccc(C(F)(F)F)c1,5%[15.4 µM],-17,8%,-5.8,6%,.,0

# Remaining list, next part:
SMILES,gsp agonist,TRPV1 PAM,gsp antagonist,Menin-MLL FL inh,Sfp PPTase inh,ClpP mod,CtBP-E1A inh
NS(=O)(=O)c1ccc(CCNC(=O)c2cnccn2)cc1,-9%[15.4 µM],-1,15%,-4.9,8%,.,5
Cc1cccc(OC(=O)CN2C(=O)C3C4CCC(C4)C3C2=O)c1C (centres undefined),-35%,14,-10%,?,12%,-0.1%,3
O=C(CSc1nnc2scc(-c3ccccc3)n12)NCc1ccc2c(c1)OCO2,?,3,3%,-2.7,9%,-3.3%,-15
COc1ccc(C2(OC)Oc3cc(OC)ccc3C(=O)C2(O)OC)cc1 (centres undefined),-2%,.,1%,.,.,32µM*,-2
CCOc1cc(/C=C(\C#N)C(=O)Nc2ccccc2[N+](=O)[O-])ccc1OCc1cccc2ccccc12,.,9,.,-3.1,14%,.,.
O=C1C2C3C=CC(C2C(=O)N1C1CCCCC1)C1C2C(=O)N(C4CCCCC4)C(=O)C2C31 (centres undefined),12%[15.4 µM],1,1%,0.6,15%,-0.5%,11
Cc1cc(C(F)(F)F)nc(SCC(=O)c2cccc([N+](=O)[O-])c2)n1,3%,9,-23%,1.6,-6%,-2.2%,-8
COC(=O)c1c(NC(=O)Cc2ccc(OC)c(S(=O)(=O)N3CCOCC3)c2)sc(C)c1C,-4%,11,-15%,.,.,?,-5
O=C(CNCc1ccccc1)Nc1ccc(F)cc1,7%[15.4 µM],-15,1%,-2.4,11%,0.2%,3
O=C(COc1ccc(Cl)cc1)NNC(=O)c1ccncc1,-20%,-5,10%,.,.,-1.8%,-8
Cc1cccc(NC(=S)Nn2cnnc2)c1C,-6%[15.4 µM],9,-24%,0.6,10µM*,.,-23
Cc1cccc(C(=O)Oc2csc(=S)n2C(=O)c2cccc(C)c2)c1,13%,-1,-6%,5.5,45µM*,0.3%,-6
CC1CCN(c2nc3ccccc3nc2C(C#N)C(=O)OC2CCCCC2)CC1 (centres undefined),12%,-1,21%,7.9,-8%,-2.3%,6
O=C(Nc1nc2ccccc2n1CCOc1ccc(Cl)cc1)c1ccco1,35%,.,-22%,2.2,7%,17%,1
COc1ccc(OC)c(C2=NS(=O)(=O)N(C)C(C(=O)N3CCC4(CC3)OCCO4)=C2)c1,26%,-4,3%,2.2,16%,-0.5%,6
Cn1ccnc1SCC(=O)Nc1ccc(Cl)cn1,1%,13,4%,0.3,-15%,.,4
CC(=O)c1cccc(NC(=O)CN(c2ccccc2F)S(C)(=O)=O)c1,-2%,-3,2%,-1.0,3%,-0.3%,2
COc1ccc(N(CC2CO2)S(=O)(=O)c2ccc(C)cc2)cc1 (centres undefined),-3%[15.4 µM],28,-8%,-1.0,11%,.,1
Cc1ccc(C2CN(C)C3(C(=O)Nc4ccccc43)C23COc2ccccc2C3=O)cc1 (centres undefined),-10%,0,-14%,3.0,2%,-1.3%,-24
CCOC(=O)c1c(N)n(C2CC(C)(C)NC(C)(C)C2)c2nc3ccccc3nc12,3%,2,8%,1.1,21%,77%,25
CC(C)C1C(=O)N(Cc2cn(Cc3ccco3)nn2)CCS(=O)(=O)N1Cc1ccc(-c2ccc(Cl)cc2)cc1 (centres undefined),?,.,.,.,.,-6.0%,0
O=C1NC2(CCCC2)N=C1c1ccc(F)cc1,29%,1,14%,4.2,11%,-1.6%,2
O=C(CCc1nc2ccccc2s1)OCC(=O)c1ccc[nH]1,0%[15.4 µM],0,6%,-1.9,22%,-0.2%,4
CCOc1ccc(-c2nnn(CC(=O)c3ccc4c(c3)OCCO4)n2)cc1,8%,15,-18%,2.0,-8%,-3.8%,13
O=c1[nH]c(Cc2cccc(C(F)(F)F)c2)nc2ccccc12,11%,1,5%,-1.1,1%,-1.9%,.
CCOCCCNC(=O)c1ccc(OC(C)=O)cc1,-12%,-2,15%,0.1,21%,-1.1%,0
Clc1ccc(NCc2nncn2-c2ccccc2)cc1,-5%,-4,8%,-1.5,12%,?,-2
O=C(Nc1nnc(SCC(=O)N2CCCC2)s1)C1CC(=O)N(c2ccccc2)C1 (centres undefined),-14%,-1,8%,.,-7%,0.6%,1
COc1cc2c(cc1NC(C)=O)CCCC2,3%,0,-2%,-1.4,8%,-1.4%,7
CCCC1C(c2ccccc2)C(C#N)(C#N)C2(C#N)CC1(N)NC2=O (centres undefined),3%,15,-14%,2.2,25%,-12%,-7
Cc1cccc(C2=N/C(=C\c3cccs3)C(=O)O2)c1,3%,8,0%,2.5,12%,2.1%,10
O/N=C1\CCCc2ccc3ccccc3c21,13%[15.4 µM],15,-8%,1.0,-18%,0.1%,12
COc1cc(C(=O)Nc2nc(N)n(-c3ccccc3)n2)cc(OC)c1OC,0%,-11,2%,2.7,7%,0.8%,1
COC1(NC(=O)c2ccccc2)C(C)=CC(=O)C=C1C,11%[15.4 µM],-32,-3%,1.5,-9%,.,3
CC=Cc1cc2c(c(=O)o1)C(=O)C(O)C(C)O2 (centres undefined),-9%,.,3%,.,.,13µM*,-1
CCOC(=O)COc1ccc(S(=O)(=O)Nc2ccc(C)cc2)cc1,-19%,3,-29%,-0.8,-1%,-0.9%,1
CCCOC(=O)c1cc(-c2ccc(C=O)o2)ccc1Cl,-64%[inhibitor],-21,-12%,3.5,-19%,2.0%,-5
CC(=O)Nc1ccc(NS(=O)(=O)c2ccc3c(c2)NC(=O)CC(=O)N3)cc1,-17%,-2,7%,.,14%,1.0%,1
CCc1c(C)nc2cc(-c3cc(OC)cc(OC)c3)nn2c1N1CCCC1,-33%[inhibitor],-22,-2%,0.2,16µM*,-30%,16
CC(=O)c1cccc(NC(=S)NC(=O)Cc2ccc(Cl)cc2)c1,12%,-5,-7%,-0.3,-3%,1.2%,.
COc1cc(C(C)=O)ccc1COc1ccc(C(=O)OCC(N)=O)cc1OC,?,11,14%,-0.5,-2%,-2.5%,-5
O=c1cc(-c2ccccc2)nc(SCc2ccccc2F)[nH]1,?,2,-4%,0.1,22%,-0.1%,3
CC(C)(C)C1CCC(=NNC(=S)NCc2ccccc2)CC1 (centres undefined),4%,-5,5%,-6.2,-4%,-2.0%,-13
O=C1NN(c2ccc(F)c(Cl)c2)C(=O)/C1=C\c1cccc(OC(=O)c2cccs2)c1,-11%,1,-3%,-1.4,-6%,-0.2%,6
COc1ccccc1N1CCN(C(=O)CCc2ccc(S(=O)(=O)NC(C)C)cc2)CC1,-43%[inhibitor],6,-8%,1.0,4%,-1.8%,6
O=C(Cc1c(F)cccc1Cl)Nc1ccccn1,-3%[15.4 µM],10,8%,-4.1,18%,0.4%,10
CC(C)OC(=O)c1ccc(OC(=O)c2cccnc2)cc1,9%[15.4 µM],0,12%,7.0,-16%,0.1%,4
N#CC1=C(N)C(C#N)(C#N)[C@H](c2ccncc2)[C@H]2CN(C(=O)OCc3ccccc3)CC=C12,-49%[inhibitor],-7,-34%,?,0%,16%,-1
COc1cccc(C(C(=O)NC2CCCCC2)N(C(=O)c2ccco2)c2ccc(-n3cnnn3)c(C)c2)c1 (centres undefined),0%,10,-7%,-1.9,-3%,1.7%,-1
N#C/C(=C\c1ccc(Cl)cc1)c1nc2ccccc2o1,7%[15.4 µM],-4,1%,1.7,-1%,?,18
CCN(CC)N=Nc1cccc(NC(C)=O)c1,-6%,-1,3%,-0.3,21%,-0.6%,-4
CC(C(=O)Nc1ccc2c(c1)OCO2)N(c1ccc(Cl)cc1)S(C)(=O)=O (centres undefined),24%,4,1%,-2.3,-8%,1.9%,18

# From PubChem BioAssay
